# CBX7 inh = inhibitors of human CBX7 binding to H3K27me3 peptide. O95931. AlphaScreen His6-CBX7 / biotin-H3K27me3 peptide binding; active compounds read low. normalised signal (fraction of DMSO) (test concentration not listed). 66,000 tested, 1.1% active; in the data active = normalised signal below about 0.5;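 also: 100 nL library stock added to about 20 µL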
# Target sequence (O95931 whole entry, looked up): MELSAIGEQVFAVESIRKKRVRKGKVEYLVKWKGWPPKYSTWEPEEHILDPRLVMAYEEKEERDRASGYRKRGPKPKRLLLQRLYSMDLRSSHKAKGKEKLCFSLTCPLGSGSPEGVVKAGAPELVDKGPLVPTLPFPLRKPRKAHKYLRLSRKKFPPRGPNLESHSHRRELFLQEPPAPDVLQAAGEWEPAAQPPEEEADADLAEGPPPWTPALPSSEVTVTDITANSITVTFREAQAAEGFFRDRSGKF
# CBX7 inh z-score = further read-out of CBX7 inh, marked with its call; z-score; measured here: z-score of CBX7 signal; some inactives read as strong as hits; reference of the scale not given here;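 same signal on another scale; lower means less binding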
# An asterisk follows results filed as active; & = joins results of further samples. Only part of the results is shown (hit frequency here may not be typical).
SMILES,CBX7 inh,CBX7 inh z-score
COc1ccccc1Nc1nc(-c2ccc(C)cc2)c(CC(=O)O)s1,0.9,-1.1
Cc1c(C(=O)Nc2ccccc2Cl)oc2ccc(S(=O)(=O)N3CC(C)CC(C)C3)cc12 (configuration not stated),1,1.4
COc1cccc(N2CCN(C(=O)CCNS(=O)(=O)c3ccc4c(c3)CCC(=O)N4)CC2)c1,1,-0.18
CN1CCCCC1(C)C#CC(O)(c1ccccc1)c1ccccc1 (configuration not stated),0.92,-0.23
CC(C)CN(CCNC(=O)c1csc2c1CCC(C)C2)CC(C)C (configuration not stated),1.2,6.3
Cc1nc2c(-c3ccccc3)c(C)nn2c(C)c1CCC(=O)Nc1ccc(F)cc1,1,0.25
O=C1CCCC2=C1C(c1ccccc1)CC(=O)N2c1ccccc1F (configuration not stated),1.2,1.6
O=C(Nc1ccc2c(c1)OCO2)c1nn2c(c1Cl)NC(c1ccccc1)CC2C(F)(F)F (configuration not stated),1,0.37
CCN(CC)c1ccc(NS(=O)(=O)c2ccc3c(c2)CCN3C(=O)C2CCC2)c(C)c1,0.85,-5
COc1ccc(-c2csc(Nc3ccc(S(N)(=O)=O)cc3)n2)cc1C,0.55,-4.5
CCOC(=O)C1CCN(C(C(=O)Nc2ccc3c(c2)OCO3)c2ccccc2)CC1 (configuration not stated),0.94,-1.3
CCn1cnc2cc(NCc3ccc(OC)cc3)ccc21,0.7,-8.6
COc1ccc(-n2c(C)nc3cc(C(=O)N4CCCCC4)ccc32)cc1,0.97,-0.74
COc1ccc(C2CC(=O)N(CC(=O)Nc3cccc(C)c3)c3ccccc3S2)cc1OC (configuration not stated),0.82,-2.6
Cc1cccc(N2CCN(C(=O)c3cc4c(s3)-c3ccccc3OC4)CC2C)c1 (configuration not stated),1,1.2
COc1ccc(Cc2nc3cc(C)c(C)cc3n(C)c2=O)cc1Br,1,0.43
Cc1ccc(Cn2nc(C)c(NC(=O)c3cc(C)on3)c2C)cc1,1,0.61
Cc1nc2c(C(=O)NCc3ccccc3Cl)c[nH]n2c(=O)c1Cc1ccccc1F,1.1,2
CCOC(=O)N1CCC(NC(=O)c2cc3sccc3n2Cc2ccc(F)cc2)CC1,0.97,-0.82
CCc1ccccc1NC(=O)CSc1nc2nc(C)c(Cc3ccccc3C)c(C)n2n1,0.92,-0.78
Cc1ccc(Cl)cc1NC(=O)C1CCN(c2nnc(-n3cccc3)s2)CC1,0.87,-2.1
C=C(C)Cn1c(CCNC(=O)Cc2ccccc2)nc2ccccc21,1,0.68
CN(CCCNS(=O)(=O)c1ccc2c(c1)CCN2C(=O)C1CCC1)Cc1ccccc1,0.99,-0.4
Cc1ccc(-c2ccc(=O)n(CCC(=O)NCCc3ccc(Cl)cc3)n2)cc1,1,1.2
CC(C)COc1ccc(C(=O)N(Cc2cccs2)C2CCS(=O)(=O)C2)cc1 (configuration not stated),1.2,2

# Looked up one by one from the entries so far (three):
SMILES,CBX7 inh,CBX7 inh z-score
COc1ccc(-n2c(C)nc3cc(C(=O)N4CCCCC4)ccc32)cc1,0.97,-0.74
CC(C)CN(CCNC(=O)c1csc2c1CCC(C)C2)CC(C)C (configuration not stated),1.2,6.3
COc1cccc(N2CCN(C(=O)CCNS(=O)(=O)c3ccc4c(c3)CCC(=O)N4)CC2)c1,1,-0.18

# Remaining list, next part:
SMILES,CBX7 inh,CBX7 inh z-score
COc1ccc(CCNC(=O)C2CCCN(c3nn4c(=O)cc(C)nc4s3)C2)cc1OC (configuration not stated),1.1,1
NC(=O)NCC(=O)NC(Cc1cnc[nH]1)C(=O)O (configuration not stated),1,1
Cc1ccc2c(c1)C(c1ccccc1)N(C(=O)COc1ccc(Cl)cc1)CC(=O)N2 (configuration not stated),0.9,-0.14
CN(CCc1ccccn1)C(=O)c1cc2n(n1)C(C(F)(F)F)CC(c1ccc(Cl)cc1)N2 (configuration not stated),1.1,1.1
Cc1cccc(-c2noc(CN(C(=O)c3cccc(Cl)c3)C(C)C)n2)c1,0.91,-0.91
Cc1cc(Nc2ccc(C)c(Cl)c2)nc(NCc2ccccc2)n1,1,0.027
CC1CCN(S(=O)(=O)c2ccc(NC(=O)c3ccc(F)cc3)cc2)CC1,0.95,-1.7
CCn1c(C(=O)NC2CCC(C)CC2)cc2sc(Cl)cc21 (configuration not stated),1.1,2.1
Cc1cc(Oc2ccccc2F)nc(N2CCOCC2)n1,1,0.52
Cc1ccc(NC(=O)CCNS(=O)(=O)c2ccc3c(c2)CCC(=O)N3)cc1F,1.1,1.6
CCOc1ccc(N2C(=O)CC(N3CCN(c4ccccc4Cl)CC3)C2=O)cc1 (configuration not stated),1.1,2.7
CCCCCn1c(=N)n(CCOc2ccccc2)c2ccccc21,1,0.25
CCN(C(=O)c1cc2c(s1)-c1ccccc1OC2)c1ccccc1F,1.3,16
Cc1c(C(=O)NCc2ccc(F)cc2)oc2ccc(S(=O)(=O)N3CC(C)CC(C)C3)cc12 (configuration not stated),0.83,-1.8
COc1ccc(N2CCN(C(c3cccs3)C(C)NC(=O)Cc3ccc(F)cc3)CC2)cc1 (configuration not stated),0.83,-4
O=C(COc1ccc(F)cc1)NC(C(=O)O)C12CC3CC(CC(C3)C1)C2 (configuration not stated),1.1,2.3
O=C(Nc1nc(-c2ccc(Br)cc2)cs1)c1ccc(Cl)cc1Cl,1,0.68
CCOc1ccc(C(=O)Nc2ccc3nc(N4CCN(CC)CC4)cc(C)c3c2)cc1,1,1.7
CCCCOc1ccccc1NC(=O)CC1Sc2ccccc2NC1=O (configuration not stated),0.99,-0.29
CCc1ccc(OCC(=O)Nc2c(C(=O)c3ccc(Cl)cc3)oc3ccccc23)cc1,1.1,0.51
COC(=O)c1ccccc1-n1c(CCC(=O)O)ccc1-c1ccc(F)cc1,1,0.12
CC1CCCN(C(=O)C(Cc2ccccc2)NS(=O)(=O)c2ccc3c(c2)CCC(=O)N3)C1 (configuration not stated),1,0.44
COc1ccc(-c2nnc(Nc3ccc4c(c3)ncn4C)c3ccccc23)cc1,1.1&0.97,1.1&-0.08
Cc1cc(N2CCOCC2)nc2ccc(NC(=O)C3CCCCC3)cc12,1,0.16
COc1ccccc1NS(=O)(=O)c1cc(-c2nn(C)c(=O)c3ccccc23)ccc1C,0.97,-0.89

# Nothing new here: 5 of the compounds above.
SMILES,CBX7 inh,CBX7 inh z-score
COc1ccc(CCNC(=O)C2CCCN(c3nn4c(=O)cc(C)nc4s3)C2)cc1OC (configuration not stated),1.1,1
NC(=O)NCC(=O)NC(Cc1cnc[nH]1)C(=O)O (configuration not stated),1,1
Cc1ccc2c(c1)C(c1ccccc1)N(C(=O)COc1ccc(Cl)cc1)CC(=O)N2 (configuration not stated),0.9,-0.14
CN(CCc1ccccn1)C(=O)c1cc2n(n1)C(C(F)(F)F)CC(c1ccc(Cl)cc1)N2 (configuration not stated),1.1,1.1
Cc1cccc(-c2noc(CN(C(=O)c3cccc(Cl)c3)C(C)C)n2)c1,0.91,-0.91

# New compounds follow:
SMILES,CBX7 inh,CBX7 inh z-score
COc1cccc(Nc2nc(C)cc(C)c2C#N)c1,1.1,2.6
CCOC(=O)N1CCN(c2cc(=O)n(-c3cccc(C)c3)c(=O)[nH]2)CC1,1,0.78
O=C(Cc1ccc(NC2=NC3CS(=O)(=O)CC3S2)cc1)Nc1ccc(F)cc1 (configuration not stated),0.84,-1.7
Clc1ccc(-c2ncnn2-c2ccc(Br)cc2)cc1,1,0.097
COc1ccc(C)cc1NC(=O)CCC(=O)Nc1ccc2nc(N3CCOCC3)cc(C)c2c1,1.1,0.083
CCc1nnc(NC(=O)c2ccc(S(=O)(=O)N(CC(C)C)CC(C)C)cc2)o1,0.1*,-1.6*
O=C1CC(c2ccccc2)Sc2ccccc2N1Cc1ccc(F)cc1 (configuration not stated),0.98,-0.33
Cc1noc(C(=O)NCc2cccs2)c1Cl,1,1.7
O=C(CCn1nc(-c2ccc(Cl)cc2)ccc1=O)NC1CCCCC1,0.98,-0.52
Cc1ccc(-c2nnn(CC(=O)Nc3ccc(OC(F)(F)F)cc3)n2)cc1,1.2,0.58
CC1(C)NC(=O)N(CC(O)COc2ccc(Br)cc2)C1=O (configuration not stated),1.2,0.57
CCN1CCN(c2cc(C)c3cc(NC(=O)CCC(=O)N4CCCCC4C)ccc3n2)CC1 (configuration not stated),1.1,2.1
Cc1ccc(-c2nc3ncccn3c2Nc2ccc3c(c2)OCCO3)cc1,1.1,1.5
COC(=O)c1ccc(Nc2cc(C)nc3ccc(Cl)cc23)cc1,1.4,1.3
NC(=O)c1oc2ccccc2c1NC(=O)c1cccc(C(F)(F)F)c1,1,0.15
CCOc1ccccc1NC(=O)Cn1ncc2c1-c1ccccc1OC2,0.83,-2.2
CCOc1ccc(-n2ccnc2SCC(=O)Nc2cccc(C)c2)cc1,0.52,-0.63
CCCCOc1ccccc1C1CC(=O)Nc2cc(OC)c(OC)cc21 (configuration not stated),1,0.2
CC(C)OCCCNC(=O)Cc1c(C(=O)O)[nH]c2ccc(Cl)cc12,1,1.3
Cc1nnc(Nc2cccc(O)c2)c2ccccc12,1,0.37
CCOc1ccc(CCNC(=O)CS(=O)(=O)Cc2nc(-c3cccc(Cl)c3)oc2C)cc1,0.97,-0.98
O=C(CCc1nc(-c2ccccc2F)no1)NCCCN1CCN(c2ccccc2F)CC1,1.1,2
Cn1nc(-c2ccccc2F)c2cc(C(=O)N3CCN(Cc4ccc5c(c4)OCO5)CC3)sc21,0.73,-4.4
CN(C)c1nc2ccc(OCCN3CCOCC3)cc2s1,1&1.1,0.81&2.4
CCCCN(C)C(=O)Cc1ccc(NC2=NC3CS(=O)(=O)CC3S2)cc1 (configuration not stated),0.99,-0.33

# (further entries)
SMILES,CBX7 inh,CBX7 inh z-score
Cc1nn(-c2ccccc2)c(Cl)c1C(=O)Nc1ccc(C)c2ncccc12,1,0.54
O=C(NCCc1ccccc1)c1ccccc1C(=O)c1ncc[nH]1,0.96,-1
COc1ccc(C2C(C(=O)Nc3ccc(F)cc3F)c3cc(OC)c(OC)cc3C(=O)N2C)cc1 (configuration not stated),1.1,0.98
Cc1cccc(OCc2nnc(SCC(=O)Nc3ccc(C)c(Cl)c3)o2)c1,1.1,1.4
Clc1ccccc1N1CCN(c2nc(-c3ccccc3)c3ccccc3n2)CC1,2.8,32
Cc1cccc(CCNC(=O)CCc2c(C)nc3c(-c4ccc(F)cc4)c(C)nn3c2C)c1,1,0.31
CCN(CC)CCNc1cc(C)c(C#N)c2nc3ccccc3n12,0.91,-1.5
CCOCCCNC(=O)C1CC(=O)N(CCc2ccccc2)C1 (configuration not stated),1,1.1
Cc1csc2ncc(C(=O)Nc3ccc4c(c3)OCCO4)c(=O)n12,0.96,-1
COc1ccc(CCNC(=O)C2CCN(S(=O)(=O)c3ccc(OC)cc3)CC2)cc1,1,0.92
CCC(C)N1C(=O)CN(C2CCC(C)CC2)C(=O)C1c1ccc(OC)c(OC)c1 (configuration not stated),0.98,-0.022
Cc1cc(N2CCN(C)CC2)nc2ccc(NC(=O)c3ccc(Cl)nc3)cc12,1,0.013
Cc1cc(=O)n2nc(N3CCC(C(=O)NCCCOC(C)C)CC3)sc2n1,1,0.36
Cc1ccc(-n2nc(C)c3c(C)c(CCC(=O)NCCC(C)C)c(C)nc32)cc1,0.96,-0.3
Cn1c(COc2nnc(-c3ccc(Cl)cc3)c3ccccc23)nc2ccccc21,1.1,2.1
Cn1c(=O)c(C(=O)Nc2ccccc2Cl)c(O)c2ccccc21,1,1.1
COc1cc2c(cc1OC)C(CC(=O)Nc1ccccc1)C(=O)N(C(C)=O)N=C2C (configuration not stated),1,0.24
COc1ccc(OC)c(S(=O)(=O)N2CCCCC2C(=O)N2CCN(c3ccccn3)CC2)c1 (configuration not stated),1,0.62
Cc1nc2cc(-c3ccc(Cl)cc3)nn2c(C)c1CCC(=O)NCCc1ccccc1,1.1,1.7
CC(C)NC(=O)CN1C(=O)c2ccccc2S1(=O)=O,1,0.73
CCc1ccc(NC2c3ccccc3C(=O)N2c2ccc(Cl)cc2)cc1 (configuration not stated),0.68,-8.8
O=C(NCC1CCCO1)c1c[nH]c2ccc(S(=O)(=O)Nc3cccc(C(F)(F)F)c3)cc2c1=O (configuration not stated),1.1,3.9
Cc1cccc(N(C)S(=O)(=O)c2ccc3c(c2)CCN3C(=O)C2CCC2)c1,1,1.5
COc1ccc(N2CCN(c3cc(=O)n(-c4ccccc4C)c(=O)[nH]3)CC2)cc1,1.1,1.2
COCCCNC(=O)C1CCN(c2nnc(-n3cccc3)s2)CC1,0.99,-0.096
CCc1ccc(NC(=O)N(CCOC)C2CCN(C(C)=O)CC2)cc1,0.93,-1.6
Cc1ccccc1CN1C(=O)c2ccccc2Sc2ccc(C(=O)NCCc3ccc(Cl)cc3)cc21,1.1,2.5
O=C(NCc1cccs1)C1CCN(S(=O)(=O)c2cccnc2)CC1,1,0.25
Cc1c(C(=O)N2CCC(C(N)=O)CC2)sc2nc(-c3ccc(F)cc3)cn12,0.98,-0.75
O=C(NCCc1ccc(Cl)cc1)c1cc(Nc2ccccc2)nc2ccccc12,1.2,2

# Sorted by the number under CBX7 inh z-score (largest number first): some entries from above.
molecule	CBX7 inh z-score
CCn1c(C(=O)NC2CCC(C)CC2)cc2sc(Cl)cc21 (configuration not stated)	2.1
Cc1nc2cc(-c3ccc(Cl)cc3)nn2c(C)c1CCC(=O)NCCc1ccccc1	1.7
COC(=O)c1ccc(Nc2cc(C)nc3ccc(Cl)cc23)cc1	1.3
CCOCCCNC(=O)C1CC(=O)N(CCc2ccccc2)C1 (configuration not stated)	1.1
CC1CCCN(C(=O)C(Cc2ccccc2)NS(=O)(=O)c2ccc3c(c2)CCC(=O)N3)C1 (configuration not stated)	0.44
Cc1cc(N2CCN(C)CC2)nc2ccc(NC(=O)c3ccc(Cl)nc3)cc12	0.013
Cn1nc(-c2ccccc2F)c2cc(C(=O)N3CCN(Cc4ccc5c(c4)OCO5)CC3)sc21	-4.4

# Source: PubChem BioAssay (several laboratories)
